Assay outcomes from PubChem.
Six1-Eya2 blk: blocks human Six1 binding to Eya2. AlphaScreen GST-Six1/His-Eya2 binding, biochemical; stronger effect = lower value; control for the full effect not named in the record. activity change, % (concentration not given with the values). 360,000 compounds, 0.56% hits; in the data active = activity change below about -65%; inconclusive = about -30% to -65%; inactive = above about -30%; also: % is scaled to controls: 0 for no effect and ±100 for the full control effect
Target sequence (O00167 whole entry, looked up): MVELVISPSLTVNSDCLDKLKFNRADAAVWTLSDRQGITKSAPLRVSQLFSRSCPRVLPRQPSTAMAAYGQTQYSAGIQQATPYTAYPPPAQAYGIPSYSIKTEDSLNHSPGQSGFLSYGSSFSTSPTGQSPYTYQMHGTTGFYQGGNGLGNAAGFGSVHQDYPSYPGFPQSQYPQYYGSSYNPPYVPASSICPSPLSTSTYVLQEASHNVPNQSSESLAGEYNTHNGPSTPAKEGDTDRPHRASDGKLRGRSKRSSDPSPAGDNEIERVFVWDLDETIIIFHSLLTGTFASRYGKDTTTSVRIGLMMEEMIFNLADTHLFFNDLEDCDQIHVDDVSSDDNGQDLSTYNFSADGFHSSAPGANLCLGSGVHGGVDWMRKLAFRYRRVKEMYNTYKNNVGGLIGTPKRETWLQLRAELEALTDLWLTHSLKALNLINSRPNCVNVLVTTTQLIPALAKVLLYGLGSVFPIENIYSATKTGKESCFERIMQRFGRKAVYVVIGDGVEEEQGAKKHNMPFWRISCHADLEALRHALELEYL
Target sequence (Q15475 whole entry, looked up): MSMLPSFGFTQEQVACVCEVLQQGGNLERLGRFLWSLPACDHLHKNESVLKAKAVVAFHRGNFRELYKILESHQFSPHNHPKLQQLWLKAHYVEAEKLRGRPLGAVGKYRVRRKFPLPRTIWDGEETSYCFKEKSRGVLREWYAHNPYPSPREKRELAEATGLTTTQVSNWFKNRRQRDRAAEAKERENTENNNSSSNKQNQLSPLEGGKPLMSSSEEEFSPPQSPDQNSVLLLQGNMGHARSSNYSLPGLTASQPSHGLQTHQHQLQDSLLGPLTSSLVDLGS
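Compounds are tested against tagged Six1 and Eya2 proteins bridged by glutathione donor and nickel acceptor beads; after a one-hour incubation at 37 °C without light, AlphaScreen emission is recorded.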
D2 PAM: positive allosteric modulators of human D2 dopamine receptor; DiscoveRx D2 beta-arrestin cells, luminescence, 90 min; 100% = 57 uM dopamine signal; potentiation, % (test concentration not listed); 360,000 compounds, 0.23% hits; active = potentiation of 50% or more; inconclusive = 30% to 50%; inactive = 30% or less;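 also: compound concentration not given in the record; tested on top of an EC20 dose of dopamine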
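PathHunter D2 cells, attached overnight at 37 deg C, received compound in DMSO plus dopamine at EC20 (50 nM final) for 90 min at 37 deg C. Beta-arrestin recruitment was read as luminescence after 1 h with detection reagent at ambient temperature.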
TRPML1 agonist: agonists of human TRPML1 channel; Q9GZU1; TRPML1-expressing cells, Ca2+ dye fluorescence, FDSS; host cell line not named in the record; reference of the full effect not given here; activation, % (concentration not given with the values); 410,000 compounds, 0.12% hits; in the data active = activation above about 50%; inconclusive = about 30% to 50%; inactive = below about 30%; also: 0% is about no effect; the text of the record puts the active cut at 80%
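Cells: TRPML1-DL, 1X Tet inducer, ~16 h at 37 degrees C/5% CO2. Dye: ABD Ca8 no-wash + quencher, 45-90 min RT. Read: 10 s baseline, compound add, 110 s agonist phase; 54-4 EC80 (4uM final), 110 s antagonist phase.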
D2 agonist: activates the human D2 dopamine receptor; P14416; AID 624465; activation, % (no concentration beside the values); 360,000 compounds, 0.084% hits; DiscoveRx PathHunter D2 beta-arrestin, luminescence, 90 min; 100% = 57 uM dopamine signal; in the data active = activation above about 40%; inconclusive = about 15% to 40%; inactive = below about 15%; also: compound concentration not given in the record; the text of the record calls up to 30% inactive
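DiscoveRx PathHunter D2 beta-arrestin cells (2,100/well) attached overnight, then compound-stimulated 90 min at 37 C in HBSS/10 mM HEPES/0.1% Tween-20 buffer; beta-galactosidase complementation read by luminescence after 1 h at ambient temperature. Dopamine 57 uM final (EC100) as control.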
PINK1 modulator: changes PINK1 expression. PINK1 immunofluorescence, high-content cytometry, 24 h. Potency, µM (titrated, usually from 76.6 µM), for inactives: at the highest dose activation (PINK1 increase), usual class: activators. 410,000 compounds, 0.2% hits. AID 624263; active = well fitted activation curve with a large enough effect; inconclusive = small, poorly fitted or top-dose-only effect; inactive = flat fitted curve, though single readings scatter; cell line not stated here;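 also: potency is read from the fitted curve at half-maximal effect; % of control where 0% means no effect; nearly all actives have a fitted effect of over 65% in size; a mitochondrial uncoupler was the plate control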
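Stable cell line treated 24 h with compounds at 5 concentrations (CCCP controls), then fixed and immunostained for PINK1 plus nuclear and cell stains; PINK1 immunofluorescence quantified by laser-scanning microplate cytometry.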
TRPML1 inh: inhibitors of human TRPML1 channel. Q9GZU1. TRPML1-inducible cells, Ca2+ dye fluorescence, FDSS; stronger effect = lower value; inhibition of EC80 agonist-evoked calcium signal. activity change, negative = inhibition, % (concentration not given with the values). 390,000 compounds, 0.02% hits. AID 624415; in the data active means activity change below about -50%; inconclusive means about -30% to -50%; inactive means above about -30%;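 also: stimulus is agonist 54-4 at its EC80 concentration; % is scaled to controls: 0 for no effect and ±100 for the full control effect; the text of the record puts the active cut at -80%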
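Tet-induced TRPML1-DL cells loaded with Ca8 no-wash calcium dye were read kinetically on FDSS. Compound addition was followed by EC80 agonist 54-4 (4 uM final); inhibition was read over 110 s.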
Starred values were filed as active, the others as inactive; ? = inconclusive; / = no result given; [ ] = remark or other dose. Random draw from the library (roughly 1% active in at least one column).

canonical_smiles,Six1-Eya2 blk,D2 PAM,TRPML1 agonist,D2 agonist,PINK1 modulator,TRPML1 inh
CCOC(=O)N1CCc2c(sc3c2c(=O)n(Cc2ccccc2)c(=O)n3Cc2cccc(Cl)c2)C1,/,/,0.2,/,1.3%,-8
O=C(Nc1cccc(NC(=O)c2ccco2)c1)c1ccc2c(c1)OCCO2,-12,-5,0.3,-3.6,3.5%,-4
NC(=O)C1CCN(C(=O)COc2cccc3ccccc23)CC1,-9,-3,0.7,-0.8,-1.3%[38.3 µM],3
O=C(COC(=O)c1ccc(O)cc1O)NNC(=O)c1cccs1,1,7,-0.7,-5.3,-1.0%,-20
CC1CC(C)CN(C(=S)Nc2ccc(SC(F)F)cc2)C1 (stereo unspecified),-5,13,0.5,2.1,?,-12
CCCCc1nnc(NC(=O)CSc2nc(=O)cc(N)n2-c2cccc(C)c2)s1,-2,-5,-0.3,-2.3,20%[38.3 µM],-4
[O-]/[N+](=C\c1ccc(OC(F)F)cc1)c1ccccc1,29,-5,-0.8,0.0,20%[38.3 µM],-1
O=C(CSc1nnc(CN2CCOCC2)n1-c1ccc(Cl)cc1)Nc1ccc2c(c1)OCO2,1,-8,1.0,5.4,-0.5%[38.3 µM],-18
O=C(Cc1c(F)cccc1Cl)Nc1ccccc1-c1ccccc1,-5,-6,6.7,-4.1,9.7%,-1
Brc1ccc(CN2CCc3nc(Nc4ccccc4)ncc3C2)s1,/,/,2.4,/,1.6%,0
COCCCNC(=O)Cn1cnc2sc(C)c(S(=O)(=O)N3CCN(c4ncccn4)CC3)c2c1=O,-11,-7,-0.3,0.0,1.0%,-8
CCC(C)(C(=O)NC1CCCC1)N(Cc1ccco1)C(=O)Cc1cccs1 (stereo unspecified),3,2,2.1,-0.6,-3.8%,-7
COCCCN(C(=O)c1cc2c(s1)CCC2)c1c(N)n(Cc2ccccc2)c(=O)[nH]c1=O,-4,3,-0.3,-1.3,-2.3%,-3
O=c1cc(C(F)(F)F)[nH]c2ccc(C(F)(F)F)cc12,8,-28,0.5,4.2,?,0
COc1ccccc1N1CCN(C(=O)c2cc(-c3ccc(Br)cc3)on2)CC1,7,-4,-0.3,-1.8,0.5%,-4
Cc1ccccc1CNC(=O)c1ccc(CS(=O)Cc2ccc(Cl)cc2)o1 (stereo unspecified),/,/,-0.8,/,-1.6%,-9
COC(=O)c1ccc(NC(=O)CCN2CCN(Cc3ccccc3)CC2)cc1,-2,-22,0.0,-2.8,-2.5%[38.3 µM],7
O=C(COC(=O)CCc1ccccc1)Nc1ccc(F)cc1Cl,12,-4,2.1,1.7,-1.7%,-8
COc1ccccc1CNC(=O)Nc1cccs1,-11,-9,-0.1,-1.3,-2.0%,19
CC(C)=CCCC1(C)C=Cc2c(ccc3c2[nH]c2cc(O)c(C)cc23)O1 (stereo unspecified),-16,-8,/,12,-1.3%,/
Cc1ccc(OCCSc2nc3ccc(NC(=O)c4cccs4)cc3s2)cc1,/,/,-0.7,/,2.2%,3
COc1cc(OC)cc(C2=Cc3ccccc3C(CC(=O)c3ccco3)N2c2ccc(-c3cccnc3)cc2)c1 (stereo unspecified),-15,/,-0.3,/,0.9%,/
COCCNC(=O)C1CCCN(C(=O)c2ccc(C(F)(F)F)nc2C)CC1 (stereo unspecified),1,-4,-0.3,-3.8,-0.1%,/
Cc1ccc(C)c(N2CCN(C(=O)c3ccccc3Br)CC2)c1,-1,-16,0.4,-3.1,-1.0%,74
CC(C)C(=O)N[C@@H]1c2ccccc2CC[C@@H]1OCc1ccccc1,-2,/,0.2,-4.5,1.3%,-2
COCCN(C(=O)c1snc(C(N)=O)c1N)C(C(=O)NC1CCCCC1)c1ccc(F)cc1 (stereo unspecified),3,-2,0.0,1.7,6.3%,-2
Cc1ccc(S(=O)(=O)NC(CC(=O)O)c2ccc(F)cc2)cc1 (stereo unspecified),6,-6,0.2,-2.8,2.8%,1
CSc1ncccc1C(=O)OCC(=O)N1CCCC1,-7,-7,0.8,2.5,0.0%,-3
Nc1[nH]c(C(=O)c2ccccc2)c(-c2ccc(Br)cc2)c1C(=O)c1cccs1,-2,/,-0.4,/,6.4%,/
O=c1[nH]cnc2c1ccn2C1OC(CO)C(O)C1O (stereo unspecified),2,-11,/,-4.2,-0.7%,/
CC1=CC(=C2C(=O)c3ccccc3C2=O)C=C(C)O1,7,5,-0.2,-1.8,?,-6
CC(=O)N1CCc2cc(CNS(=O)(=O)c3ccc(F)cc3)ccc21,/,/,1.1,/,1.9%,-2
O=C(CSc1ccccc1)Nc1nc2ccccc2[nH]1,-16,-8,-0.8,-1.9,7.6%,-4
COc1ccc(OCC(=O)N/N=C(\C)c2ccc(OC)cc2)cc1,13,-5,1.1,-1.1,0.8%,9
Cc1ccc(S(=O)(=O)NCC2CCC(C(=O)N3CCOCC3)CC2)cc1 (stereo unspecified),0,2,0.0,2.8,0.9%,40
CC(c1ccccc1)C(CC(=O)O)C(=O)Nc1ccc(Cl)c(Cl)c1 (stereo unspecified),-3,-1,-0.4,1.0,-0.5%,11
O=C(c1cnc(N2CCOCC2)c2ccccc12)N1CCN(c2ccccc2)CC1,/,/,0.5,/,1.8%,5
COc1ccc(NC(=O)Nc2cnccn2)c(OC)c1,6,-1,0.3,6.0,-0.8%,6
CCCc1nnc(NC(=O)CCC(=O)NCc2ccc(OC)cc2)s1,6,0,3.0,2.4,0.5%,-9
COc1cc(OC)c(Nc2cc(C)nc3nc(C)nn23)cc1Cl,-5,-3,1.2,-1.5,5.1%,?
O=C(NCc1ccco1)C(c1ccccc1)N(C(=O)Cc1cccs1)c1ccccc1F (stereo unspecified),-1,17,3.9,-1.9,3.4%,3
COc1cc(OC)cc(C(=O)NCC2CCCN(C(=O)c3csc(C(C)C)n3)C2)c1 (stereo unspecified),4,7,2.1,-2.8,-2.5%,6
C/C(=N\NC(=O)c1ccc(CSc2nncn2C)cc1)c1ccc2ccccc2c1,5,-5,2.7,-5.0,0.8%,5
Cc1nc(Nc2c(Cl)cccc2Cl)sc1C(=O)Nc1ccccc1,-8,-4,0.9,-0.1,4.3%,38
ON=C1c2cc(OCCN3CCCCC3)ccc2-c2ccc(OCCN3CCCCC3)cc21,-11,-31,0.6,-2.2,-2.3%,10
COC(=O)c1ccc(/C=N/N2CCN(Cc3ccccc3Cl)CC2)cc1,-8,-10,1.8,-2.1,1.0%,8
Cc1cccc(OCC(=O)Nc2ccncc2)c1,0,-1,0.3,2.8,2.1%,17
O=C(c1cc(-c2ccccc2)on1)N(Cc1cccnc1)C(c1ccccn1)c1nc2ccccc2[nH]1 (stereo unspecified),5,-12,-0.2,-12,-0.6%,/
COc1ccc(-c2c(-c3ccsc3)oc(=O)c3cc(OC)c(OC)cc23)cc1,17,1,2.1,2.5,0.6%,4
COC(=O)C(CC(C)C)NC(=O)c1ccc([N+](=O)[O-])c(C)c1 (stereo unspecified),0,-1,-0.1,-3.1,0.5%,13
C=CCn1c(SCc2nc3ccccc3c(=O)[nH]2)nc2sc3c(c2c1=O)CCCC3,0,5,0.2,-1.9,5.1%,14
COc1ccc(-c2nn(-c3ccccc3)cc2C(=O)NC(=S)Nc2cc(Cl)ccc2Cl)cc1,-1,-6,0.7,-0.9,3.4%,-9
Cc1ccc(Cl)cc1N1CCN(C(=O)c2noc(C)c2[N+](=O)[O-])CC1,-11,-3,-1.4,8.1,-0.3%,1
Cc1ccc2oc(-c3ccc(Cl)c(NC(=O)Cc4ccccc4)c3)nc2c1,/,/,-0.1,/,3.6%,-17
CCOC(=O)Nc1ccc(NC(=O)c2ccccc2F)cc1,4,-13,1.5,3.3,6.2%,49
O=C1CC(C(=O)Nc2ccc(Cl)c(Cl)c2)S/C(=N\N=C\c2ccco2)N1 (stereo unspecified),-17,0,0.0,0.8,3.3%,-7
O=S1(=O)CCN2C=C(Br)C=C(Br)C2=N1,-1,-4,-0.1,-2.2,17%[38.3 µM],44
CCN(c1ccccc1)c1nnc(NC(=O)Nc2ccccc2F)s1,/,/,0.8,/,-0.3%,-23
CCOc1ccc(S(=O)(=O)NCCC(=O)N2CCN(c3ccccc3O)CC2)cc1,-3,-1,-0.1,0.3,0.5%,11
CCCCCn1c(CN2CCN(c3cccc(Cl)c3)CC2)nc2c1c(=O)[nH]c(=O)n2C,20,-9,2.1,2.2,-5.1%,-5

Structures above that contain a nitro group on carbon:
canonical_smiles,Six1-Eya2 blk,D2 PAM,TRPML1 agonist,D2 agonist,PINK1 modulator,TRPML1 inh
COC(=O)C(CC(C)C)NC(=O)c1ccc([N+](=O)[O-])c(C)c1 (stereo unspecified),0,-1,-0.1,-3.1,0.5%,13
Cc1ccc(Cl)cc1N1CCN(C(=O)c2noc(C)c2[N+](=O)[O-])CC1,-11,-3,-1.4,8.1,-0.3%,1

The results go on:
canonical_smiles,Six1-Eya2 blk,D2 PAM,TRPML1 agonist,D2 agonist,PINK1 modulator,TRPML1 inh
O=C(Nc1ccc(CN2CCOCC2)cc1)c1ccc(F)cc1,4,0,0.1,-3.1,8.6%,30
CSCCC(NS(=O)(=O)c1ccc2c(c1)OCCO2)C(=O)N(C)Cc1ccccc1F (stereo unspecified),-9,22,-1.7,11,5.0%,-2
CCN1CCN(CCCNC(=O)c2cc3c(=O)n(C)c4ccccc4c3s2)CC1,/,/,-0.2,/,0.0%,37
CCSc1nc2cc(OC)c(OC)cc2c(=O)n1CCc1ccccc1,0,3,2.4,-1.1,?,-6
CCN1C(=O)C(Cc2nc3ccccc3c(=O)n2C)c2cc(C)ccc21 (stereo unspecified),/,/,-1.1,/,0.0%,-5
CCOC(=O)C1CCN(C(=O)COC(=O)/C=C/c2cccc(OC)c2OC)CC1,0,6,-0.7,2.8,2.0%,6
COc1cccc(-c2cnc(NCc3cc(Cl)ccc3O)n2C)c1,?,-25,2.0,-0.5,-2.5%,9
